Screening data as filed in PubChem.
NS1 function inh: inhibitors of influenza NS1 protein function; S. cerevisiae slowed by influenza A NS1, growth recovery by OD600; Potency, µM (highest dose often 46.1 µM), inactives show at the highest dose activity, positive = more growth; 270,000 compounds, 0.4% hits; active means well fitted rising curve with a large enough effect; inconclusive means small, poorly fitted or top-dose-only effect; inactive means no such curve, though single readings can be large or run the other way; also: nearly all actives have a fitted effect of over 50% in size
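In this qHTS, NS1 from influenza A is expressed in budding yeast, where it slows growth. Cells are switched from glucose to 2% galactose medium (pH 6.0, -URA), treated with compound, and growth recovery is read at OD600.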
StopGo reporter: lowers the luciferase signal of an FMDV 2A StopGo reporter; 410,000 compounds, 1.2% hits; Potency, µM (doses to about 57.9 µM), inactives show at the top dose signal change, negative = less light; human cells with a luciferase reporter of 2A StopGo recoding; control for the full effect not named in the record; active = well fitted falling curve with a large enough effect; inconclusive = small, poorly fitted or top-dose-only effect; inactive = no such curve, though single readings can be large or run the other way; tested in HEK293T cells; also: % is scaled to controls: 0 for no effect and ±100 for the full control effect; nearly all actives have a fitted effect of over 45% in size; luciferase light after 4 h
RE007 growth inh: less growth of the S. pombe RE007 Vpr strain; S. pombe RE007 Vpr strain, BacTiter-Glo ATP luminescence, 24 h; control for the full effect not named in the record; Potency, µM (series often up to 92.2 µM), inactives show top-dose activity change, negative = less growth; 360,000 compounds, 0.21% hits; active = well fitted falling curve with a large enough effect; inconclusive = small, poorly fitted or top-dose-only effect; inactive = no such curve, though single readings can be large or run the other way;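 also: % is scaled to controls: 0 for no effect and ±100 for the full control effect; nearly all actives have a fitted effect of over 50% in size; the assay follows cell death caused by Vpr and the record does not say whether a fall means rescue or toxicity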
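Fission yeast RE007 carrying one integrated HIV-1 vpr copy, seeded at OD 0.01 in PMG+AL medium with 23 nL pinned compound. Grown 24 h at 30 degrees; viability read by BacTiter-Glo luminescence after 5 min.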
Cruzain Triton: cruzain (T. cruzi) inhibition with detergent; P25779; purified cruzain, Z-FR-AMC fluorescence, 0.01% Triton; Potency, µM, for the others: max response, negative = inhibition, hits mostly inhibitors; 200,000 compounds, 0.43% hits; AID 1478;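 also: plate controls were neutral wells for no effect and buffer without enzyme for full effect; nearly all actives have a fitted effect of over 40% in size; top concentration of the series not given in the record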
Target sequence (P25779 123-467 limits assumed): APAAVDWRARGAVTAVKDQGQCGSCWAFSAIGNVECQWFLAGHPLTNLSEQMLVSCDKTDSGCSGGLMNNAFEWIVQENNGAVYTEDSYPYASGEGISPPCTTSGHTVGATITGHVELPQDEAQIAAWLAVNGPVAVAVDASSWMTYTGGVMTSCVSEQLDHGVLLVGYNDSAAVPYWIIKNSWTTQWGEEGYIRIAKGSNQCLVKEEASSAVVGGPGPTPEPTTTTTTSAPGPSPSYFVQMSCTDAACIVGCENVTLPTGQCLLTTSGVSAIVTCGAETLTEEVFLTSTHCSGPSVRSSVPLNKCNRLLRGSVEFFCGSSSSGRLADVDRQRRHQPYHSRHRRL
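Compounds were screened in titration against cruzain (1.5 nM) with 0.01% Triton X-100 to counter colloidal aggregation. Activity was the AMC fluorescence increase over 60 s after adding 2 uM Z-FR-AMC at pH 5.5.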
Marburg entry inh: blocks Marburg virus binding to or entry into cells; AID 540276; 300,000 compounds, 1.8% hits; Marburg virus pseudotyped entry inhibition, cell reporter; control for the full effect not named in the record; about a third of the inactives were read at about 46 µM; Potency, µM (doses to about 37.8 µM), without a hit: at the highest dose activity change, negative = inhibition, most hits filed as inhibitors; active = well fitted inhibition curve with a large enough effect; inconclusive = small, poorly fitted or top-dose-only effect, or effect the other way; inactive = flat fitted curve, though single readings scatter; tested in HEK293 cells; about a fifth of its hits are not listed in these tables; also: % is scaled to controls: 0 for no effect and ±100 for the full control effect; luciferase read-out
SARS PLpro yeast: blocks SARS-CoV papain-like protease in a yeast assay; S. cerevisiae expressing SARS-CoV PLpro, growth rescue; control for the full effect not named in the record; Potency, µM (top dose mostly 32.9 µM), for the others: top-dose activity, positive = growth rescue; 330,000 compounds, 0.19% hits; AID 485353; active means well fitted rising curve with a large enough effect; inconclusive means small, poorly fitted or top-dose-only effect; inactive means no such curve, though single readings can be large or run the other way; also: 0% is about no effect; nearly all actives have a fitted effect of over 55% in size; growth read by luminescence after 48 h
Cruzain noTriton: inhibitors of Trypanosoma cruzi cruzain without detergent; P25779; purified cruzain, Z-FR-AMC fluorescence, no detergent; Potency, µM, for the others: max response, negative = inhibition, actives largely listed as inhibitors; 200,000 compounds, 2.3% hits; AID 1476;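 also: plate controls were enzyme without inhibitor for no effect and buffer without enzyme for full effect; nearly all actives have a fitted effect of over 40% in size; top concentration of the series not given in the record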
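Detergent-free condition (0.00005% Triton X-100) in acetate buffer pH 5.5 with DTT. 1.5 nM enzyme and compound were pre-mixed 15 min, then 2 uM Z-FR-AMC substrate added; reaction progress from fluorescence change between first and third reads (60 s).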
LASV entry inh: inhibitors of Lassa virus binding or cell entry | Lassa virus pseudotype entry inhibition, cell reporter; control for the full effect not named in the record | Potency, µM (highest dose often 37.9 µM), for inactives: at the top dose activity change, negative = inhibition, most hits filed as inhibitors | 300,000 compounds, 1.2% hits; active means well fitted inhibition curve with a large enough effect; inconclusive means small, poorly fitted or top-dose-only effect, or effect the other way; inactive means flat fitted curve, though single readings scatter; tested in HEK293 cells; also: % is scaled to controls: 0 for no effect and ±100 for the full control effect; nearly all actives have a fitted effect of over 50% in size; luciferase read-out
The depositor's hits bear a star; ? = inconclusive; · = no result given; [ ] = another dose, or the depositor's remark. Unless noted, calls follow the shape of the dose curve; as a rule, active = well fitted curve in the direction sought with a large enough effect; inconclusive = small, poorly fitted or top-dose-only effect, or another doubt; inactive = no such curve, though single readings can be large; an effect the other way counts as inactive or inconclusive. Potency is read from the fitted curve at half-maximal effect.

SMILES | NS1 function inh | StopGo reporter | RE007 growth inh | Cruzain Triton | Marburg entry inh | SARS PLpro yeast | Cruzain noTriton | LASV entry inh
COc1ccccc1/C=N/N(C(C)=O)c1nc(-c2ccc(F)cc2)cs1 | -9% | 19% | -10% | -1.9% | ? | 0% | -6% | ?
Cc1ccc(-n2c(O)c(C=Nc3ccc(Br)cn3)c(=O)[nH]c2=O)cc1 | 1% | -14% | 2% | · | 4%[46.1 µM] | 0% | · | -5%
CCCCC(CC(O)COCCC)c1n[nH]c(=S)n1-c1ccccc1 (stereo unspecified) | -3% | -5% | 24% | · | 2%[46.1 µM] | 0% | · | -7%[46.1 µM]
O=C(CCn1nc(-c2ccc(Cl)cc2)ccc1=O)NCCc1ccccc1 | · | -3% | · | 0.4% | · | · | 24% | -13%[46.1 µM]
CCN(CC)S(=O)(=O)c1ccc(OC)c(NC(=O)c2cccc([N+](=O)[O-])c2C)c1 | · | -11% | 16% | · | ? | · | · | -3%
O=C(CN1CCN(C(=O)C2CCN(C(=O)/C=C/c3ccccc3)CC2)CC1)Nc1ccccc1Cl | · | -20% | 4% | · | -2%[46.1 µM] | 9% | · | 19%
CCC1(C)Cc2c(sc3c2c(=O)n(-c2ccccc2)c(=O)n3C)CO1 (stereo unspecified) | 3% | -19% | -2% | 3.7% | 0% | 5% | 20% | -22%
O=C(Nc1ccc(-c2csc(Nc3cccc(C(F)(F)F)c3)n2)cc1)c1cccc(C(F)(F)F)c1 | 29% | ? | 12% | · | · | -2% | · | ·
CCOC(=O)C1C(=O)C=C(c2ccccc2)CC1c1ccccc1 (stereo unspecified) | · | 0% | -9% | · | ? | · | · | ?
CCN(CC)c1nc(C)c(C(C)=O)cc1C#N | 21% | -21% | -4% | 0.3% | 3% | 6% | 2% | 3%
CC[C@@]1(c2ccccc2C)C(=O)N(C(=O)OC)N1C(=O)OC | 7% | -24% | -5% | · | · | -1% | · | ·
O=C(NCc1ccco1)c1scc2c1OCCO2 | 1% | -10% | -2% | -2.5% | ? | 11% | -11% | -18%
CCCc1nc2ccccc2c(=O)n1CC(=O)c1ccccc1 | 1% | -18% | -1% | · | · | 1% | · | ·
O=C(CNC(=O)c1ccc(Cl)cc1)OCc1cc(=O)n2ccsc2n1 | · | -15% | · | -11% | · | · | -8% | 25%[46.1 µM]
CS(=O)(=O)N1CCc2cc(C(=O)Nc3ccc(S(N)(=O)=O)cc3)ccc21 | · | -9% | · | -0.8% | -16%[46.1 µM] | · | 9% | 2%[46.1 µM]
Cc1ccc(C(=O)CCC(=O)O)cc1 | 2% | · | · | 7.0% | 1% | 3% | -1% | ·
N#Cc1nc(COc2ccccc2)oc1N1CCN(c2cccc(Cl)c2)CC1 | -22% | -24% | 3% | -1.1% | 20%[46.1 µM] | 0% | -10% | -24%
COc1ccc(C)cc1NC(=O)NNC(=O)c1cc2ccccc2cc1O | 10% | -11% | -1% | · | · | 5% | · | ·
c1ccc(CSc2nnc(-c3sccc3-n3cccc3)o2)cc1 | -55% | -29% | -29% | -2.2% | -16% | -22% | -3% | -11%
Cc1ccc(-c2c(=O)n(OCc3ccccn3)c3ccccc3[n+]2[O-])cc1 | 7% | · | · | 2.9% | · | 3% | -1% | ·
Cc1ccc(/C=N/NC(=O)c2ccc(-c3ccccc3)cc2)o1 | -42% | 16% | -18% | · | 14%[46.1 µM] | -3% | · | ·
O=c1[nH]c(-c2ccccc2)c(-c2ccccc2)[nH]1 | -1% | -14% | 0% | -4.5% | 25% | 4% | -1% | -4%
Cc1nn(C)cc1CN1CCCC(C(=O)c2ccc(-c3ccccc3)cc2)C1 (stereo unspecified) | -1% | ? | -20% | · | ? | 0% | · | ?
O=C(Nc1ccccc1N1CCOCC1)C1CCCCN1S(=O)(=O)c1ccccc1 (stereo unspecified) | · | -8% | 1% | · | -6% | 0% | · | ?
O=C(Nc1scc(-c2ccccc2)c1C(=O)O)c1ccco1 | -41% | 23% | 0% | -4.2% | -10%[46.1 µM] | -20% | -10% | 0%
CCOC(=O)N1CCC(NC(=O)CS(=O)Cc2nc(-c3ccccc3C)oc2C)CC1 (stereo unspecified) | -1% | -19% | -9% | · | · | -1% | · | ·
CCN(CC(=O)Nc1c(F)cccc1F)C(=O)c1n[nH]c2ccccc12 | 14% | -16% | 10% | · | · | -7% | · | ·
CCOC(=O)c1c(NC(=O)Cc2cccs2)sc(C(=O)N2CCCCC2)c1C | -6% | -19% | 14% | -3.4% | -17% | -3% | 1% | ?
O=C(Nc1ccc(F)cc1)c1nc[nH]c1C(=O)Nc1ccccc1[N+](=O)[O-] | 2% | -6% | 6% | -2.2% | 10% | 11% | 2% | 18%
O=c1oc(Nc2ccccc2F)nc2ccccc12 | -7% | 9% | -15% | -4.1% | ? | 6% | -7% | 9%

Brought forward from above: 4 compounds, followed by the next part.
SMILES | NS1 function inh | StopGo reporter | RE007 growth inh | Cruzain Triton | Marburg entry inh | SARS PLpro yeast | Cruzain noTriton | LASV entry inh
CCN(CC(=O)Nc1c(F)cccc1F)C(=O)c1n[nH]c2ccccc12 | 14% | -16% | 10% | · | · | -7% | · | ·
CCOC(=O)c1c(NC(=O)Cc2cccs2)sc(C(=O)N2CCCCC2)c1C | -6% | -19% | 14% | -3.4% | -17% | -3% | 1% | ?
O=C(Nc1ccc(F)cc1)c1nc[nH]c1C(=O)Nc1ccccc1[N+](=O)[O-] | 2% | -6% | 6% | -2.2% | 10% | 11% | 2% | 18%
O=c1oc(Nc2ccccc2F)nc2ccccc12 | -7% | 9% | -15% | -4.1% | ? | 6% | -7% | 9%
COc1ccc(CCNc2nc(=O)[nH]nc2C)cc1OC | 10% | -4% | -13% | -0.4% | ? | -1% | -4% | ?
CCC(Sc1nc2sc(C(=O)OC)c(C)c2c(=O)n1N)C(=O)N(CC)CC (stereo unspecified) | 3% | -19% | 3% | -4.0% | ? | -2% | -14% | ?
COc1cc(C(CC(=O)NCc2ccccc2Cl)N2Cc3ccccc3C2=O)cc(OC)c1OC (stereo unspecified) | · | 2% | · | ? | · | · | 16µM* | 4%[46.1 µM]
COc1ccc([N+](=O)[O-])cc1NC(=O)COC(=O)c1ccccc1O | -1% | -16% | -6% | · | -5%[46.1 µM] | 0% | · | -10%
CC(C(N)=O)N1C(=O)NC2(CCCc3ccccc32)C1=O (stereo unspecified) | -15% | 57%[activator] | -2% | · | ? | 1% | · | -7%[46.1 µM]
CC1CCN(CC(=O)N2CC(=O)Nc3ccccc32)CC1 | 15% | -17% | 6% | -0.5% | -6% | 14% | -8% | -20%
COc1ccc(C)cc1NC(=O)CC(O)(C(F)(F)F)C(F)(F)F | -13% | 11% | 8%[3.69 µM] | -2.9% | 25% | -2% | -12% | 13%
CCCc1nc(SCc2ccc(Cl)cc2Cl)n[nH]1 | -14% | 17% | -14%[3.69 µM] | -0.6% | -6% | -12% | -7% | 7%
CCN(C(=O)CCS(=O)(=O)c1cccc2nonc12)c1ccc(F)cc1 | 4% | 76%[activator] | 12% | · | 19%[46.1 µM] | -5% | · | 17%
Cc1cccc(N(C)c2ncnc3onc(-c4ccc(F)cc4)c23)c1C | -15% | -24% | -1% | · | · | -15% | · | ·
CC(C)n1c(Sc2nccn2C)nc2c1c(=O)n(C)c(=O)n2C | ? | · | 7% | 7.2% | 7% | -4% | -11% | -3%
Cc1cc(N2CCCC2)ccc1/C=N/n1cnnc1 | -56% | 3% | -5% | -7.7% | -13% | -12% | -23% | -27%
COC(=O)c1ccccc1NC(=O)N1C[C@@H]2C[C@@H](C1)c1cccc(=O)n1C2 | 13% | -20% | 13% | · | · | 1% | · | ·
COc1ccc(CNC(=O)c2ccc(CS(=O)(=O)c3ccc(Br)cc3)o2)cc1 | 6% | ? | 5% | -3.2% | · | -9% | 1% | ?
CCc1c(C)nc(SCC(=O)N2CCCCC2CC)[nH]c1=O (stereo unspecified) | -4% | 3% | -1% | · | · | 1% | · | ·
CCC(Oc1ccccc1)C(=O)Nc1ccc2oc(-c3ccc(OC)cc3)nc2c1 (stereo unspecified) | · | 17% | · | 0.3% | ? | · | 1% | ?
Cc1ccc(NC(=O)CCc2nnc3ccc(N4CCOCC4)nn23)cc1C | 14% | -12% | -4% | · | · | 3% | · | ·
CCOc1ccc(OCC)c(NC(=O)C2CCCN(C(=O)c3ccc(Cl)cc3)C2)c1 (stereo unspecified) | · | -17% | 16% | · | ? | 0% | · | -2%
CCc1[nH]nc2c1C1(CCOC1C)C(C#N)=C(N)O2 (stereo unspecified) | -5% | -6% | -14% | 0.1% | 0% | 2% | -1% | -11%
Cc1ccc(C(=O)C(OC(=O)c2c(C)cc(=O)oc2C)c2ccccc2)cc1 (stereo unspecified) | 9% | -17% | -4% | · | · | -1% | · | ·
CC(C)CCN1C(=O)CC(NNC(=O)c2ccc(S(=O)(=O)N3CCCC3)cc2)C1=O (stereo unspecified) | -1% | -12% | -13% | · | · | -3% | · | ·
Cc1ccccc1Cc1c(C)nc2nc(SCC(=O)NC(C)c3ccccc3)nn2c1C (stereo unspecified) | · | -26% | · | -5.2% | -22%[46.1 µM] | · | -9% | -23%[46.1 µM]
O=C(CCN1CCc2ccccc2C(c2ccccc2)C1)c1ccc2c(c1)OCCO2 (stereo unspecified) | -49% | -5% | 5.6µM* | 28µM* | ? | -26% | 16µM* | ?
O=C(/C=C/c1cccc([N+](=O)[O-])c1)NCCN1C(=O)S/C(=C\c2cccnc2)C1=O | · | 10% | -4% | · | 2%[46.1 µM] | -2% | · | 0%[46.1 µM]
